Screening data from PubChem BioAssay.
HNF4A DNA FP – change in binding of human HNF4 alpha to DNA | P41235 | HNF4a-FITC DNA binding, fluorescence polarization, 1 h | activity change, % at 10 µM | 0.3% of 360,000 active | AID 1224865; in the data active = activity change above about 30%, passing the limit was not always enough;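 note: controls were the assay level and a saturating level of protein; the project sought stronger binding though the title names inhibitors; some compounds called inactive have numbers as strong as hits; positive values seem to mean higher polarization but the record does not say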
Target sequence (P41235 whole entry, looked up): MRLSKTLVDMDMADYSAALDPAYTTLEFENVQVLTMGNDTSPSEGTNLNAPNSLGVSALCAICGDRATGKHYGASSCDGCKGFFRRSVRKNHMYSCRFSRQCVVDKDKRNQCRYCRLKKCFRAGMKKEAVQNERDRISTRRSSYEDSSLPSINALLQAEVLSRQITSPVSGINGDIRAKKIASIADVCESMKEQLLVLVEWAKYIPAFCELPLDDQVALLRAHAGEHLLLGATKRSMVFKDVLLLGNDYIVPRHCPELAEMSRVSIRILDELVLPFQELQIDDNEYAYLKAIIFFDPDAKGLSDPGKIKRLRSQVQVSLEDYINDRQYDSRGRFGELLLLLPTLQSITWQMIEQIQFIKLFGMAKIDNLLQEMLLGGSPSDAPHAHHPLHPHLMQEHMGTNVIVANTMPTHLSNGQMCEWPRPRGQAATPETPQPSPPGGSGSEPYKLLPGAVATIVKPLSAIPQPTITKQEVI
E coli growth – inhibitors of Escherichia coli growth; OD600 absorbance (no concentration beside the values); AID 1053175; 0.21% of 330,000 active; OD600, 23 h; active compounds read low;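 active = OD600 absorbance below the run mean of sample wells minus 3.6 SD, in any replicate, cut at about 0.56 in these data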;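 note: stock transfer was 300 nL into about 60 µL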
LANA-H2A inh – blocks KSHV LANA binding to histone H2A/H2B; Q9QR71; cell-free LANA-H2A/H2B peptide, fluorescence polarization; inhibition, % (no concentration beside the values); 0.6% of 320,000 active; AID 2629; in the data active = inhibition mostly above about 10%, no sharp cut-off; inactive = mostly below about 6.7%;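 note: stock transfer was 7.5 nL into about 10 µL; 0% = median of vehicle wells and 100% = median of positive control wells; one replicate is shown; the record names a cut of 25% in any replicate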
B2AR ag – activates human beta-2 adrenergic receptor causing internalization | P07550 | Am2.2-beta2AR cells, FAP receptor internalization, flow cytometry; reference of the scale not given here | response, % (test concentration not listed) | 0.43% of 340,000 active;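 active = response above a set limit, near 3 SD of response in nonfluorescent compounds, cut at about 42% in these data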;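 note: stock transfer was 100 nL into about 11 µL; a reference agonist was the positive control; negative values mostly stem from fluorescent compounds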
UCH37 DUB inh – inhibitors of human deubiquitinating enzyme UCH37; purified proteasome/UCH37, Ub-AMC cleavage fluorescence; inhibition, % (no concentration beside the values); 0.33% of 330,000 active;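 active = mean of two replicates above 20%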;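 note: 0% = compound-free wells with enzyme and 100% = wells lacking proteasome; stock transfer was 100 nL into about 20 µL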
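Test system – human UCH37 enzyme supplied as purified proteasome complex · Incubation – 30 min preincubation with enzyme, 25 min cleavage at room temperature · Detection – AMC fluorescence from Ub-AMC cleavage, excitation 355 nm, emission 460 nm · Benchmarks – no-proteasome wells (full inhibition) and compound-free wells (no inhibition)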
FGF22 binding – binders of recombinant human FGF22 by thermal shift; 1.5% of 340,000 active; calls only at 9.99 µM; Q9HCT0; SYPRO orange fluorescence; percent of sucrose octasulfate shift, DMSO zero; AID 651658;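 active = melting point raised past a set limit in the mean and every replicate; inconclusive = no clear call; three in four hits are not shown here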
Target sequence (Q9HCT0 whole entry, looked up): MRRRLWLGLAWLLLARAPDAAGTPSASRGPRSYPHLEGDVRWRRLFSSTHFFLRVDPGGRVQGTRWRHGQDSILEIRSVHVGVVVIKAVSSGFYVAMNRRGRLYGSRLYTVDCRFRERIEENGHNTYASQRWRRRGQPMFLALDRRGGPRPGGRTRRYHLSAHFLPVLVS
ALR inh – blocks human ALR sulfhydryl oxidase activity; purified ALR, DTT oxidation, H2O2 HRP-luminol luminescence; inhibition, % (no concentration beside the values); AID 485317; 3.8% of 290,000 active;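 active = mean and each replicate at 75% or more; inconclusive = only one of the two met; inactive = neither met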;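 note: stock transfer was 7.5 nL into about 7.5 µL; 0% = neutral wells and 100% = wells with inactivated enzyme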
Target sequence (P55789 whole entry, looked up): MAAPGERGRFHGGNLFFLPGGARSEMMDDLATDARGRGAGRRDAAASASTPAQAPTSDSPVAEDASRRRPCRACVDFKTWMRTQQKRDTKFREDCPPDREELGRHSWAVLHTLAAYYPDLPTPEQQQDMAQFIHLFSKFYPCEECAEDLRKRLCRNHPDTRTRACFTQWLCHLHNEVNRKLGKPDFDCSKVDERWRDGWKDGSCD
Starred values were filed as active, the others as inactive; i = inactive; ? = inconclusive; . = not tested or not shown. Only part of the results is shown; count on the stated rates, not on these rows.

SMILES	HNF4A DNA FP	E coli growth	LANA-H2A inh	B2AR ag	UCH37 DUB inh	FGF22 binding	ALR inh
Cn1cncc1C#Cc1ccc2cc(C(C)(C)O)oc(=O)c2c1	0.6	0.78	0.9	-7	7.8	i	-1
COc1ccc(CCNc2oc(-c3ccc(OC)c(OC)c3)nc2C#N)cc1	-2.6	0.66	-0.9	11	-107	.	42
O=[N+]([O-])c1ccc(/C=N/NC2=NS(=O)(=O)c3ccccc32)cc1	2.3	.	1.3	-2	.	i	0
COC(=O)c1cncc(O)c1	0.7	0.7	-2.3	0	-2.2	.	-17
Cc1cc(SCC(=O)OCC(=O)NC(C)c2ccccc2)c(C)cc1Br (centres undefined)	-2.4	0.75	4.6	-3	1.7	.	2
CCc1c(C)nc2ncnn2c1N1CCN(S(=O)(=O)c2ccc(OC)cc2)CC1	1.2	0.68	1.2	10	5.0	.	-3
CC(C)c1ccc(NC(=O)c2ccc3snnc3c2)cc1	-1.1	0.7	-1.6	1	0.3	i	-12
CCn1cnc2c(NCCc3cccnc3)nc(C#N)nc21	-4.6	0.67	3.5	-14	0.8	i	-3
COc1ccc(/C=C(/NC(=O)c2ccc(C)cc2)C(=O)N2CCCC2)cc1OC	2.1	0.68	1.0	2	9.4	i	-2
Cc1ccccc1CN1CCC(n2nccc2NC(=O)CCCc2ccccc2)CC1	2.6	0.68	-1.8	4	3.5	i	0
Cc1ccc(CN2CC(C(=O)Nc3cccc(S(=O)(=O)N4CCCCC4)c3)CC2=O)cc1 (centres undefined)	-1.6	0.67	-0.1	6	3.5	.	-6
CN(CCOc1ccccc1)CC(=O)Nc1ccc(Cl)c(S(=O)(=O)N(C)C)c1	3.4	0.7	-1.7	-3	2.1	i	-6
CC(c1nccs1)N(C)C(=O)CCc1nnc(Cc2c[nH]c3ccccc23)o1 (centres undefined)	0.4	0.7	-5.1	-8	2.2	i	-8
O=C1CCCC2=C1C(c1cccs1)Nc1ccc3ncccc3c12 (centres undefined)	-2.1	0.67	0.2	-3	-25	.	-12
Cc1c(NCc2nc3ccccc3[nH]2)c(=O)n(-c2ccccc2)n1C	1.2	0.67	1.9	-8	14	i	-23
Cc1cc(C)nc(NC(=NCc2ccc3c(c2)OCO3)NC(=O)Nc2ccccc2)n1	1.3	0.7	-0.4	-5	-0.4	.	-63
Cc1cccc(-c2c3c(nc4c2c(=O)n(C)c(=O)n4C)-c2ccccc2C3O)c1 (centres undefined)	-3.9	0.65	0.4	10	12	i	-5
CCOC(=O)C1CCCN(c2c(NCCN(C)Cc3ccccc3)c(=O)c2=O)C1 (centres undefined)	3.2	0.7	-0.9	6	2.8	i	-4
CSc1ccc(/C=N/n2c(C)cc(C)cc2=O)cc1	-1.4	.	3.0	-9	.	.	-6
Cc1ccc(C)c(S(=O)(=O)N(C)C2(C)CCS(=O)(=O)C2)c1 (centres undefined)	1.8	0.65	-2.4	5	0.1	i	-2
CCOC(=O)c1ccc(N2C(=O)CC(N3CCC(C(N)=O)(N4CCCCC4)CC3)C2=O)cc1 (centres undefined)	0.7	0.63	-2.2	-9	0.1	i	3
CCCCCCSc1nc(O)c(C2OC(=O)c3c2ccc(OC)c3OC)c(=O)n1CC (centres undefined)	0.3	0.67	-0.4	-2	2.7	.	98*
Cc1ccc(S(=O)(=O)N2CCCN(S(=O)(=O)c3ccc(C(F)(F)F)cc3)CC2)cc1	-3.9	0.75	0.0	-4	2.5	.	-3
CCOC(=O)CCc1c(C)c2ccc3c(c2oc1=O)CN(CCCO)CO3	2.8	0.63	0.0	1	i	i	.
CC(NC(=O)c1ccc(CS(C)(=O)=O)cc1)C1CC2CCC1C2 (centres undefined)	1.3	0.68	11	1	3.8	i	-1
SMILES	HNF4A DNA FP	E coli growth	LANA-H2A inh	B2AR ag	UCH37 DUB inh	FGF22 binding	ALR inh
CCn1c(C)c(C)c2cc(C(=O)NC3CCCCCC3)ccc21	2.8	0.66	-3.7	14	-3.1	i	?
Oc1cccc(-c2nc3ccccc3s2)c1	1.8	0.7	-4.1	8	0.9	.	4
S=C(NCC1CCCO1)Nc1ccccc1Cl (centres undefined)	2.8	0.67	-2.8	-6	0.7	i	-94
COc1ccccc1CNC(=O)CCn1c(=O)sc2ccccc21	1.0	0.68	1.8	8	-0.1	.	-13
CCOC(=O)N1CCN(CC(=O)Nc2cc(OC)c(OC)cc2C#N)CC1	1.3	0.73	2.1	7	1.6	i	-10
COc1ccc(NC(=O)c2cc3ccccc3o/c2=N\NS(=O)(=O)c2ccc(C)cc2)cc1	-2.5	.	0.9	-26	.	i	-8
Cc1cc(C)c(S(=O)(=O)Nc2ccc[nH]c2=O)c(C)c1	-4.0	0.76	-0.9	-2	-0.5	.	4
COc1ccc(S(=O)(=O)CCC(=O)Nc2ccc(OC)cc2OC)cc1	-2.9	0.7	0.2	3	0.7	.	?
CCOC(=O)C/C(=N\Nc1ncnc2ccccc12)c1ccccc1	-0.4	.	-1.3	7	.	i	.
COc1ccc(OCC2NCCc3cc(OC)c(OC)cc32)cc1 (centres undefined)	2.4	0.7	-1.5	-4	-0.4	i	-2
Cc1ccc(C(=O)c2c3ccc([N+](=O)[O-])cc3[n+]([O-])n2CCC(N)=O)cc1	.	0.64	-2.4	-4	-1.6	i	-39
COc1ccc(-c2cc(C(F)(F)F)nc(SCCC(=O)N3CCN(C)CC3)n2)cc1	1.6	0.72	.	-5	-1.1	i	.
CCN1CCN(c2nc3c(C)cccn3c(=O)c2/C=C(\C#N)S(=O)(=O)c2ccc(Cl)cc2)CC1	3.9	0.6	-1.1	5	0.3	i	-19
CCN(CC)CCCNC(=O)c1[nH]c(C)c(C(=O)NC2CCCCC2)c1C	2.1	0.69	1.6	-3	0.1	.	-4
C#CCOCCOCCOCCNc1nc(N2CCN(C(=O)[C@H](CCCCN)n3cc(CCC(=O)O)nn3)CC2)nc(N2CCN(C(=O)[C@H](CCCCN)n3cc(CC(C)O)nn3)CC2)n1 (some centres undefined)	1.3	.	2.2	1	-1.5	i	.
CC(N=C1NS(=O)(=O)c2ccccc21)C(=O)NCc1ccc2c(c1)OCO2 (centres undefined)	2.8	0.75	4.2	-2	-0.3	.	-10
CC(C)(C)c1ccc2c(c1)OC(C(=O)N/N=C/c1ccc([N+](=O)[O-])o1)CO2 (centres undefined)	-2.3	.	13	0	.	i	-13
O=[N+]([O-])c1ccc(S(=O)(=O)NCCN2CCOCC2)cc1	-1.0	0.7	-3.4	-2	2.2	i	-59
O=C(CN(C(=O)C1CSC(=O)C1)c1ccc(F)cc1)NCc1ccc2c(c1)OCO2 (centres undefined)	-0.8	0.67	3.2	-3	1.1	i	-2
Cc1ccc(NC(=O)CSc2nnc(/N=C/N(C)C)s2)cc1	-4.3	.	0.1	-11	.	i	-4
COc1cccc(C2CC(c3ccccc3)Nc3ncnn32)c1 (centres undefined)	0.7	0.73	-4.9	1	4.1	.	2
Cc1ccc(S(=O)(=O)N2CCC(=O)N(C(COCc3ccc(C(F)(F)F)cc3)C(C)C)CC2)cc1 (centres undefined)	3.2	0.69	-1.9	-3	1.0	.	.
COc1ccc(Cl)cc1NC(=O)c1cc(-c2ccc(C)cc2O)n[nH]1	2.1	0.69	23*	2	0.1	i	-1
CSCC[C@H](NC(=O)C(C)Oc1ccc(Cl)cc1)c1nc2ccccc2[nH]1 (some centres undefined)	-0.9	0.67	2.9	-1	1.0	.	4
COC(=O)c1ccc2c(=O)n(CC3CCCO3)c(SCC(=O)NCCc3ccc(S(N)(=O)=O)cc3)nc2c1 (centres undefined)	3.5	0.66	-3.1	3	-7.8	i	15

Record cards (already shown):
`C#CCOCCOCCOCCNc1nc(N2CCN(C(=O)[C@H](CCCCN)n3cc(CCC(=O)O)nn3)CC2)nc(N2CCN(C(=O)[C@H](CCCCN)n3cc(CC(C)O)nn3)CC2)n1` (some centres undefined) in the list: HNF4A DNA FP = 1.3; E coli growth = .; LANA-H2A inh = 2.2; B2AR ag = 1; UCH37 DUB inh = -1.5; FGF22 binding = i; ALR inh = .
`COc1ccc(-c2cc(C(F)(F)F)nc(SCCC(=O)N3CCN(C)CC3)n2)cc1` in the list: HNF4A DNA FP = 1.6; E coli growth = 0.72; LANA-H2A inh = .; B2AR ag = -5; UCH37 DUB inh = -1.1; FGF22 binding = i; ALR inh = .

(next part)
SMILES	HNF4A DNA FP	E coli growth	LANA-H2A inh	B2AR ag	UCH37 DUB inh	FGF22 binding	ALR inh
Cc1cc(NC(=O)CSc2nc3c(cc2C#N)CCC3)no1	-0.8	0.65	3.1	-3	-42	i	.
CCOC(=O)Nc1cccc(Nc2ccccc2)c1	1.6	0.62	-1.9	-2	-0.1	.	99*
Cc1ccc(-c2csc3nnc(SCc4csc(C)n4)n23)cc1	-4.1	0.73	-3.7	-17	-1.6	.	-3
CCS(=O)(=O)c1ncc(Cl)c(C(=O)Nc2ccc(S(=O)(=O)N3CCCC(C)C3)cc2)n1 (centres undefined)	-2.9	.	-0.4	47*	.	i	63
Cc1ccc(CNC(=O)C2CCN(S(=O)(=O)c3cccc4nonc34)CC2)cc1	-2.1	0.67	1.4	-2	4.7	i	-12
CC(C)(C)c1ccccc1NC(=S)NC1CCCC1	-1.9	0.64	-2.2	2	1.7	i	-7
Cc1ccc(NCN2C(=O)C3CC=CCC3C2=O)cc1 (centres undefined)	3.6	0.7	0.8	2	0.6	.	-34
CCOC(=O)c1ccc2[nH]c3c(c2c1)CCCC3	-2.5	0.65	-24	2	1.0	i	98*
CCCc1nnc(NC(=O)C2CCCO2)s1 (centres undefined)	0.8	0.7	-1.0	-3	4.2	.	4
C[C@@H](CN1CCC(Cc2ccccc2)CC1)[C@@H](O)c1ccc(O)cc1	-0.6	.	0.4	-4	3.0	i	9
CC1CC(C)CN(CCCNC(=O)c2cc3c(s2)-c2ccccc2OC3)C1 (centres undefined)	4.9	0.67	-5.6	13	i	i	-4
CCOC(=O)CSc1nnc(-c2ccc(S(=O)(=O)N3CCOCC3)cc2)n1-c1ccccc1	-0.3	0.7	-1.9	-4	-0.1	.	.
Cn1c(=O)c2c(SCC(=O)Nc3ccccc3F)nc(C3CC3)nc2n(C)c1=O	-4.1	0.7	3.1	-5	3.0	i	-4
O=C(O)c1sccc1S(=O)(=O)N1CCN(c2ccc(C(F)(F)F)cn2)CC1	4.2	0.69	-10	-2	1.6	i	-4
COc1ccc(N2C(=O)C3CCCN3C2c2ccc(C)o2)cc1 (centres undefined)	-4.2	0.77	1.0	8	0.2	i	-11
c1ccc2c(c1)CCN(c1ncnc3nc[nH]c13)C2	4.2	0.72	0.1	1	6.0	i	0
CC(C)(ONC(=O)Nc1ccccc1Cl)C(=O)O	2.4	0.66	1.5	14	4.8	i	-4
O=C(NNC(=O)c1ccc(F)cc1)c1ccncc1	-0.6	0.67	1.3	-3	3.2	i	-7
CC1CCCCC1NC(=O)COC(=O)COc1ccc(Cl)cc1 (centres undefined)	-2.5	0.66	5.8	0	2.0	.	-4
O=c1c(Cc2ccccc2)c(O)nc2n1CCS2	2.2	0.77	3.3	3	6.4	.	8
O=C(Nc1ncc2c(n1)-c1ccccc1CC2)c1ccc(F)cc1	3.5	0.64	-7.4	-2	-8.6	.	4

A second format for four compounds above.
Fields – HNF4A DNA FP, E coli growth, LANA-H2A inh, B2AR ag, UCH37 DUB inh, FGF22 binding, ALR inh
- O=c1c(Cc2ccccc2)c(O)nc2n1CCS2
  2.2, 0.77, 3.3, 3, 6.4, ., 8
- CC1CCCCC1NC(=O)COC(=O)COc1ccc(Cl)cc1 (centres undefined)
  -2.5, 0.66, 5.8, 0, 2.0, ., -4
- CC(C)(ONC(=O)Nc1ccccc1Cl)C(=O)O
  2.4, 0.66, 1.5, 14, 4.8, i, -4
- c1ccc2c(c1)CCN(c1ncnc3nc[nH]c13)C2
  4.2, 0.72, 0.1, 1, 6.0, i, 0
